S aureus helic: blocks Staphylococcus aureus DNA helicase; inhibition, %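 (tested at about 80 µM)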; purified S. aureus helicase, fluorescence unwinding assay; about half of the hits fall short of the stated cut; hit rate 0.05% among 120,000;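 active = both duplicates at 50% or more, or one of them with a favoured structure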;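 also: 0% = mean of negative control wells and 100% = mean of positive control wells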
MgrA DNA FP: alters Staphylococcus aureus MgrA binding to DNA; inhibition, %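 (about 10 µg/mL by stock and volumes)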; fluorescence polarization; hit rate 0.13% among 84,000;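 active = above 50% in either of two replicates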;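 also: 0% = protein plus DNA without compound and 100% = DNA alone without protein; higher means less MgrA bound to DNA so lower polarization; one replicate is shown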
An asterisk follows results filed as active; nt = no result given. Not all compounds are listed; rates above refer to the full screens.

entry	smiles	MgrA DNA FP	S aureus helic
1	C/C(=N\NC(N)=S)C1CC2CCC1C2 (stereo not drawn)	nt	5.0
2	COC(=O)/C(C#N)=C/c1ccc(C)o1	0.8	nt
3	O/N=C/c1cccn1-c1ncc(C(F)(F)F)cc1Cl	1.8	nt
4	COC(CNC1CCCc2c1[nH]c1ccc(C)cc21)OC (stereo not drawn)	nt	18.0
5	O=C(Nc1ccccc1Sc1c(Cl)cncc1Cl)c1cccs1	-1.4	nt
6	Cc1ccc(COc2c(-c3ccccc3)c(=O)n3c4c(cc(C)cc24)CCC3)cc1	-1.1	nt
7	COc1ccc(CNn2cnnc2SCc2ccc(F)cc2)cc1OC	-4.6	4.0
8	COc1cc(NC(=O)c2cc3nc(-c4ccco4)cc(C(F)(F)F)n3n2)cc([N+](=O)[O-])c1	-0.9	nt
9	CCOC(=O)C1=C(Nc2ccc(Cl)cc2)OCC1=O	nt	-18.0
10	CC(=O)Oc1cccc(/C=C2\N=C(c3ccco3)OC2=O)c1	2.7	10.0
11	O=C(c1ccc(Cl)cc1)N1CCCCC(Sc2nnc(C3CC3)n2C2CC2)C1=O (stereo not drawn)	nt	10.0
12	CCOC(=O)c1c(-c2cccs2)csc1NC(=O)c1ccccc1	3.6	6.0
13	CC(C)(C)c1ccc(C(=O)Nc2ccc(F)cc2)s1	4.2	nt
14	CCOC(=O)C1=C(C)N=c2s/c(=C3\C(=O)N(CC)c4ccccc43)c(=O)n2C1c1ccc(OC(C)=O)cc1 (stereo not drawn)	0.6	nt
15	CC1(C)CC(N2CCOCC2)CC(C)(C)N1	0.5	2.0
16	O=C1CC(=O)CC(c2ccc(Cl)c(Cl)c2)C1	1.3	nt
17	Cc1cc(C)nc(NC(=O)COC(=O)/C=C/c2cccs2)n1	nt	-22.0
18	CC(Oc1ccc(F)cc1)c1nnc(SCC(=O)N2CCNC2=O)o1 (stereo not drawn)	nt	0.0
19	O=C(Cc1coc2ccc3ccccc3c12)NCc1ccco1	17.4	21.0
20	O=C1CCCC/C1=C/Nc1cccc(N/C=C2/CCCCC2=O)c1	0.9	-3.0
21	CSc1sc(C(=O)N(C)C)cc1S(=O)(=O)C(C)C	-3.1	nt
22	O=C(Nc1nccs1)c1cccc(NS(=O)(=O)c2ccccc2)c1	nt	-1.0
23	CCOC(=O)c1cc(-c2ccc(OC)c(S(=O)(=O)NCCN3CCCCCC3)c2)on1	nt	7.0
24	O=C(CSc1n[nH]c(Cc2ccccc2)n1)NC1CCCCC1	-0.2	-4.0
25	Cc1cc(C)c(C(=O)CC(N2CCOCC2)C(F)(F)F)c(=O)[nH]1 (stereo not drawn)	nt	-8.0
26	CCOC(=O)c1sc2nc(-c3ccccc3OC)nc(C)c2c1C	-1.1	nt
27	COc1ccc(C(=O)NC(Nc2cc(C)on2)(C(F)(F)F)C(F)(F)F)cc1	nt	-11.0
28	CCOC(=O)CC(=O)Nc1c(NC)c2ccccc2oc1=O	0.0	1.0
29	CC(C)C(=O)NCc1cccnc1	-0.9	-21.0
30	O=c1c2sccc2nc(SCc2cc(=O)n3cc(Br)ccc3n2)n1C1CC1	0.4	8.0

Entries of single compounds, quoted from the list. Screens in order: MgrA DNA FP, S aureus helic
Listed for `CCOC(=O)c1c(-c2cccs2)csc1NC(=O)c1ccccc1` : 3.6, 6.0
Listed for `Cc1ccc(COc2c(-c3ccccc3)c(=O)n3c4c(cc(C)cc24)CCC3)cc1` : -1.1, nt

Retrieved one by one from the entries so far (three):
entry	smiles	MgrA DNA FP	S aureus helic
30	O=c1c2sccc2nc(SCc2cc(=O)n3cc(Br)ccc3n2)n1C1CC1	0.4	8.0
3	O/N=C/c1cccn1-c1ncc(C(F)(F)F)cc1Cl	1.8	nt
25	Cc1cc(C)c(C(=O)CC(N2CCOCC2)C(F)(F)F)c(=O)[nH]1 (stereo not drawn)	nt	-8.0

New compounds follow.
entry	smiles	MgrA DNA FP	S aureus helic
31	CC(NCc1ccc(S(N)(=O)=O)cc1)C(=O)NCc1ccccc1 (stereo not drawn)	nt	10.0
32	O=C1OC(c2ccccc2)=N/C1=C\c1cccc(Cl)c1	1.6	nt
33	CCNc1ncnc2c1cnn2-c1ccc(C)c(C)c1	nt	-14.0
34	Nc1c(N(C(=O)c2ccc(Br)o2)C2CCCC2)c(=O)[nH]c(=O)n1Cc1ccccc1	nt	17.0
35	O=C(CSC1=NC(=O)C(c2ccccc2)C(=O)N1)Nc1nncs1 (stereo not drawn)	-1.1	5.0
36	COc1ccccc1OCc1ccc(C(=O)NCc2ccncc2)o1	-0.8	3.0
37	CC(C)NC(=O)/C(C#N)=C/c1ccc(-c2ccc(S(=O)(=O)N3CCOCC3)cc2)o1	nt	6.0
38	N#C/C(=C\N1CCCC1)S(=O)(=O)c1ccc(Cl)cc1	nt	-3.0
39	COC(=O)C1=C(N)Oc2ccccc2C1C(C#N)C#N (stereo not drawn)	3.0	nt
40	O=c1oc2ccccc2c(O)c1NS(=O)(=O)c1ccc2c(c1)CCCC2	-1.3	3.0
41	CCc1ccc(OCC(=O)Nc2ccc(S(N)(=O)=O)cc2)cc1	nt	20.0
42	COc1ccc(CCN2C(=O)/C(=C\c3ccccc3C(=O)O)SC2=S)cc1OC	1.9	nt
43	CN(C)c1ccc(-n2nnnc2SCc2cc(F)cc(F)c2)cc1	1.3	nt
44	CCn1cc(C2=NOC(C(=O)NC3CCCC3)C2)c(C)n1 (stereo not drawn)	nt	26.0
45	N#CC(C#N)=Cc1cn(Cc2ccccc2)c2ccccc12	-4.6	8.0
46	Cc1ccccc1NC(=O)C1C(c2cccs2)C(C#N)=C(SCC(N)=O)NC1(C)O (stereo not drawn)	1.6	18.0
47	CC(=O)NS(=O)(=O)c1ccc(NC(=O)c2ccco2)cc1	-2.9	-1.0
48	Cc1ccc(SCc2[nH]nc3c2C(c2ccoc2)C(C#N)=C(N)O3)cc1 (stereo not drawn)	6.6	0.0
49	CCn1c(N)c(C(=O)CSc2ncccn2)c(=O)[nH]c1=O	nt	6.0
50	CCN1CCN(C(=O)c2ccc(S(=O)(=O)Nc3ccc(OC)cc3)cc2)CC1	nt	-11.0
51	Cc1cc(-c2csc(NC(=O)CN3C(=O)C4C5C=CC(C5)C4C3=O)n2)c(C)n1-c1ccccc1 (stereo not drawn)	nt	-6.0
52	COc1cc(C2Nc3ccc(C(=O)c4ccccc4)cc3NC3=C2C(=O)CCC3)cc(OC)c1OC (stereo not drawn)	2.3	nt
53	COC(=O)c1cc(COC(=O)c2ccc(OC(F)(F)F)cc2)oc1C	nt	8.0
54	CCC(=O)Nc1c(C(=O)N(CCN(C)C)Cc2ccco2)oc2ccccc12	nt	-4.0
55	Cc1ccc(-c2cn3nc(N4CCCC(C(=O)Nc5cc(C)cc(C)c5)C4)sc3n2)cc1 (stereo not drawn)	nt	10.0
56	COc1ccc(/C=C2\N=C(c3ccc(Cl)c([N+](=O)[O-])c3)OC2=O)cc1OC(C)=O	-2.3	nt
57	Cc1cc(C)c2c(NCc3ccc(N4CCCCC4)cc3)n[nH]c2n1	0.9	-6.0
58	Cc1cc(NC(=O)C2CCCCC2C(=O)O)no1 (stereo not drawn)	0.9	5.0
59	CC(NC(=O)CCN1CCOCC1)C1COc2ccccc2O1 (stereo not drawn)	nt	-5.0
60	Cc1noc(C)c1S(=O)(=O)NC1CCCCCC1	0.0	13.0

Values by screen from the entries so far:
S aureus helic, compounds 18 to 25 → 0.0, 21.0, -3.0, nt, -1.0, 7.0, -4.0, -8.0

Additional structures follow:
entry	smiles	MgrA DNA FP	S aureus helic
61	CC1=CC(=C2C(=O)NC(=S)NC2=O)C=C(C)N1Cc1ccco1	nt	8.0
62	CC1CCCCC1N(C)C1CCN(CCCNC(=O)/C=C/c2ccccc2Cl)CC1 (stereo not drawn)	1.3	22.0
63	Cn1c(=O)c2c(nc(N3CCCCC3)n2CCCc2ccccc2)n(C)c1=O	nt	4.0
64	CC1CC(C)CN(Cc2nc(N)nc(Nc3ccccc3)n2)C1 (stereo not drawn)	nt	-12.0
65	C=CCN(CC=C)CCOc1ccc(Cl)cc1	-2.6	-3.0
66	O=C(NCCN=C1NS(=O)(=O)c2ccccc21)c1ccncc1	1.9	-10.0
67	CSc1cccc(NC(=O)CSc2ncn[nH]2)c1	12.4	4.0
68	O=C1OCCC1Sc1nc2cc(Cl)ccc2s1 (stereo not drawn)	nt	1.0
69	CCOC(=O)/C(=N/O)C1=NC(C)(C)Cc2cc(OC)c(OC)cc21	nt	-2.0
70	COc1ccc2[nH]c3c(=O)n(CC(=O)NCc4ccco4)c(=S)[nH]c3c2c1	nt	-8.0
71	CCOc1ccc(-c2nc3c(c(C)nn3-c3ccccc3)c3cc(OC)c(OC)cc23)cc1	1.6	-7.0
72	CCc1c(C)n([O-])c2c([n+]1=O)CCCCC2	2.5	15.0
73	O=C1c2cccnc2C(=O)N1Cc1ccc(S(=O)(=O)NC2CCCCC2)cc1	nt	27.0
74	Cc1n[nH]c(=O)nc1NCC1CCCO1 (stereo not drawn)	nt	2.0
75	COc1ccc2cc(Br)ccc2c1CC(=O)NCc1ccco1	9.6	25.0
76	Cc1ccsc1C=Nc1c(F)c(F)c(F)c(F)c1F	-3.8	-7.0
77	CCn1c(CNC(=O)c2ccccc2F)nnc1SCc1nc2ccccc2c(=O)[nH]1	1.2	-4.0
78	O=C(NC(=S)Nc1n[nH]c(C2CC2)c1N=Nc1ccc(Cl)cc1)c1ccccc1	-0.7	nt
79	Cc1onc(-c2ccccc2)c1C(=O)N(C)CCc1ccccn1	0.3	nt
80	O=C(NCCN1CCN(c2ccccc2F)CC1)c1cc(C2CC2)[nH]n1	nt	-25.0
81	COCCN1C(=O)c2oc3cc(C)c(C)cc3c(=O)c2C1c1ccc(OCC(N)=O)cc1 (stereo not drawn)	nt	26.0
82	O=C(NCC1CCCO1)c1nc(-c2cccc(C(F)(F)F)c2)no1 (stereo not drawn)	-6.0	13.0
83	Cc1ccccc1NC(=O)CSc1ccccc1C(=O)O	nt	16.0
84	N#CCCC1(CCC#N)CCCC(CCC#N)(CCC#N)C1=O	nt	3.0
85	Cc1cccc(NC(=S)NCCN2CCOCC2)c1	nt	13.0
86	CCCC(OC(=O)CN1C(=O)COc2ccccc21)C(=O)NC1CCCC1 (stereo not drawn)	-1.3	-3.0
87	COc1cc(S(=O)(=O)N(C)C)ccc1F	-1.8	16.0
88	O=C(Nc1nccc2ccccc12)c1cccs1	-0.5	nt
89	Cc1onc(-c2ccccc2Cl)c1C(=O)N1CCCCC1	-1.3	nt
90	CN(CCO)S(=O)(=O)c1ccc2c(c1)oc(=O)c1cc(S(=O)(=O)N(C)CCO)ccc12	nt	-10.0
91	CC(C)n1cc(/C(N)=N/O)c(=O)n(Cc2ccccc2)c1=O	-1.3	nt
92	N#CC1=C(N)OC(c2cccs2)=C(C#N)C1c1cccs1 (stereo not drawn)	3.0	nt
93	N#CCCOC1(C#CC#CC2(OCCC#N)CCCCC2)CCCCC1	-0.7	10.0
94	O=C(CCN1C(=O)/C(=C/c2ccccc2Cl)SC1=S)Nc1ncc(Cc2ccccc2)s1	-1.1	nt
95	Cc1cc(-c2csc(NC(=O)C3CCCO3)n2)c(C)n1CCc1ccccc1 (stereo not drawn)	nt	11.0
96	CCCCN(CC)C(=O)C1c2ccccc2Oc2ccccc21	-0.8	11.0
97	Cc1nn(Cc2c(Cl)cccc2Cl)c(C)c1CNCC(c1ccco1)N1CCCC1 (stereo not drawn)	nt	3.0
98	O=c1cc(-c2ccc(O)cc2)oc2ccc(O)cc12	nt	-7.0
99	CCOC(=O)c1c(C)n(-c2ccccc2)c2ccc(OC(=O)C34CC5CC(CC(C5)C3)C4)cc12	-1.2	nt
100	CCO/C=C(\C#N)S(=O)(=O)c1ccc(C)cc1	-2.2	nt
101	COc1ccccc1NC(=O)Cc1cccs1	nt	14.0
102	COc1ccc(CCNS(=O)(=O)c2ccc(Cl)c(Cl)c2Cl)cc1OC	-2.3	nt
103	Cc1ccccc1NC(=O)N1CCCC(C(N)=O)C1 (stereo not drawn)	2.4	10.0
104	CN(CC(=O)Nc1ccc(F)c(F)c1F)C(=O)/C=C/c1ccco1	nt	10.0
105	CN(C)c1cccc(C(=O)OCCN2C(=O)c3ccccc3C2=O)c1	nt	0.0
106	CCOC(=O)c1c(CC(C)C)csc1NC(=O)c1ccccc1OC(C)=O	2.0	6.0
107	CCCCN(CC)C(=O)c1cc(OC)c(OC)c(OC)c1	1.1	23.0
108	O=S(=O)(c1ccccc1)c1nnn2c1nc(NCc1ccco1)c1sccc12	nt	19.0
109	Oc1ccccc1OCc1ccccc1	nt	-8.0
110	CCn1c(/N=C/c2ccc(OC)cc2O)nc2ccccc21	7.8	-4.0
111	O=C(Nc1ccncc1)c1cnc2sccn2c1=O	nt	9.0
112	Cc1cccn2cc(-c3cccc(NC(=O)CCC(=O)O)c3)nc12	nt	19.0
113	CC(C)c1cc(NCCN(C)C)n2c(nc3ccccc32)c1C#N	nt	-25.0
114	CN(CCc1ccccn1)C(=S)NCc1ccccc1	nt	6.0
115	CN1C(=O)C2(C(C#N)=C(N)Oc3cc(O)ccc32)c2ccccc21 (stereo not drawn)	0.4	10.0
116	O=C1C2CC=C(Cl)CC2C(=O)N1c1ncn[nH]1 (stereo not drawn)	nt	7.0
117	CN1CCN(C(=O)C2CCCCC2C(=O)O)CC1 (stereo not drawn)	-0.8	0.0
118	COc1ccc(OCC(O)CNC(=S)Nc2ccc3c(c2)OCO3)cc1 (stereo not drawn)	nt	-12.0
